# Vif TR-FRET: HIV-1 Vif–A3G interaction blockers – biochemical, TR-FRET, GST-Vif 1-94, biotin-A3G peptide, dose response retest, primary screen (AID 1117319). TR-FRET GST-Vif / biotin-A3G peptide binding; higher % means a stronger effect; test concentration not given here; strong numbers were not always called active. inhibition, %; hits with a dose series show IC50 in µM. 260,000 tested, 0.57% active;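 active = above the screen mean plus three standard deviations and confirmed in dose response; inconclusive = results disagree or hit not tested in dose response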;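 also: Vif residues 1-94 fused to GST binding biotinylated APOBEC3G peptide 110-148; 0% = full assay without inhibitor and 100% = GST in place of GST-Vif; retest series ran down from 100 µM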
# HNF4A DNA FP: change in binding of human HNF4 alpha to DNA. HNF4a-FITC DNA binding, fluorescence polarization, 1 h. activity change, % at 10 µM. 360,000 tested, 0.3% active; in the data active = activity change above about 30%, passing the limit was not always enough;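 also: controls were the assay level and a saturating level of protein; the project sought stronger binding though the title names inhibitors; some compounds called inactive have numbers as strong as hits; positive values seem to mean higher polarization but the record does not say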
# Target sequence (P41235 whole entry, looked up): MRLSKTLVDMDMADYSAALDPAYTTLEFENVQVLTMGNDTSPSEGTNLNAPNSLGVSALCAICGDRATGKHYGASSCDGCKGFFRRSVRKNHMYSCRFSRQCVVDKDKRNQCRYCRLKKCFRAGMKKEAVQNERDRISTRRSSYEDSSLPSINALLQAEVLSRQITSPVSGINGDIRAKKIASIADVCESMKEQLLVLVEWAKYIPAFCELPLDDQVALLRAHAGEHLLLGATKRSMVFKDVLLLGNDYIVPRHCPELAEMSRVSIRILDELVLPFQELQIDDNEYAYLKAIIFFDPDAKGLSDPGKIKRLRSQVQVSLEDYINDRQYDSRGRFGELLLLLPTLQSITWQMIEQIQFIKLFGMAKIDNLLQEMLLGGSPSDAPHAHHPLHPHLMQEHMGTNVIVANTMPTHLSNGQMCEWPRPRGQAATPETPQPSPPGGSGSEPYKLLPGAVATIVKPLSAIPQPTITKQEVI
# B2AR ag: activates human beta-2 adrenergic receptor causing internalization; P07550; AID 504454; Am2.2-beta2AR cells, FAP receptor internalization, flow cytometry; reference of the scale not given here; response, % (concentration not given with the values); 340,000 tested, 0.43% active;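 active = response above a set limit, near 3 SD of response in nonfluorescent compounds, cut at about 42% in these data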;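 also: stock transfer was 100 nL into about 11 µL; a reference agonist was the positive control; negative values mostly stem from fluorescent compounds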
# Target sequence (P07550 whole entry, looked up): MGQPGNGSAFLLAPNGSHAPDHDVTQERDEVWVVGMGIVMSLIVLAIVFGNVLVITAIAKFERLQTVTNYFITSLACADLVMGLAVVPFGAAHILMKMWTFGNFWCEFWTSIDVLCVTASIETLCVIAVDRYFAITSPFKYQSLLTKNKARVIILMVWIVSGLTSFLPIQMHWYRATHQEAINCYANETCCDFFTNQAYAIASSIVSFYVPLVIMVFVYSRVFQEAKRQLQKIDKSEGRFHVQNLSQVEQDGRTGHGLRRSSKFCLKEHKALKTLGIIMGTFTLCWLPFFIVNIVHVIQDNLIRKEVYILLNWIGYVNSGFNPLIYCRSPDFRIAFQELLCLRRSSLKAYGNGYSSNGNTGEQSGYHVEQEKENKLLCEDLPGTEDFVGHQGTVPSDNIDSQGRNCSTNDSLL
# LANA-H2B inh: blocks KSHV LANA binding to histone H2A/H2B. Q9QR71. cell-free LANA-H2A/H2B peptide, fluorescence polarization. inhibition, % (concentration not given with the values). 320,000 tested, 0.6% active; in the data active = inhibition mostly above about 10%, no sharp cut-off; inactive = mostly below about 6.7%;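 also: stock transfer was 7.5 nL into about 10 µL; 0% = median of vehicle wells and 100% = median of positive control wells; one replicate is shown; the record names a cut of 25% in any replicate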
# RanGTP-Imp inh: inhibitors of RanGTP-importin-beta interaction, primary screen, biochemical, FRET, CFP-Ran, YFP-importin-beta, homogeneous; 300,000 tested, 1.1% active; cell-free CFP-Ran/YFP-importin-beta FRET ratio; AID 2216; inhibition, % (concentration not given with the values);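 active = most replicates above 15%; inconclusive = exactly half above 15%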;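 also: 0% = DMSO wells and 100% = Ran loaded with GDP instead of GTP; wells of about 40 µL received 100 nL stock; the first replicate is given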
# ALR inh: blocks human ALR sulfhydryl oxidase activity; purified ALR, DTT oxidation, H2O2 HRP-luminol luminescence; AID 485317; inhibition, % (concentration not given with the values); 290,000 tested, 3.8% active;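 active = mean and each replicate at 75% or more; inconclusive = only one of the two met; inactive = neither met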;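 also: stock transfer was 7.5 nL into about 7.5 µL; 0% = neutral wells and 100% = wells with inactivated enzyme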
# Calb FLC: C. albicans growth modulation with fluconazole; C. albicans CaCi-2 (fluconazole-resistant clinical isolate) + fluconazole, Alamar Blue growth, 48 h; growth inhibition, % (test concentration not listed); 300,000 tested, 0.57% active; AID 1979;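 active = most replicates above 75%; inconclusive = exactly half above 75%; inactive = most below 75%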;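 also: all wells also contain fluconazole at 8 µg/ml as a sub-toxic cotreatment; 0% = median of DMSO wells and 100% = median of geldanamycin control wells; wells of about 8 µL received 7.5 nL stock; the first replicate is given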
# An asterisk follows results filed as active; ? = inconclusive; / = not tested or not shown; & = joins results of further samples.
SMILES	Vif TR-FRET	HNF4A DNA FP	B2AR ag	LANA-H2B inh	RanGTP-Imp inh	ALR inh	Calb FLC
Cc1ccc2nc(SCC(=O)NC(=O)NCc3ccco3)[nH]c2c1	2%	1.4	2	2.7	6.4	1	-1
O=S(=O)(c1ccccc1)N1N=C(c2cccs2)CC1c1ccc(Br)cc1 (configuration not stated)	-7%	0.0	3	4.7	-4.5	-2	4
Cc1ccc(S(=O)(=O)c2c(C)nn(C(C)(C)C)c2OC(=O)C2CCCC2)cc1	0%	-2.4	11	-2.6	-0.3	-2	-4
OCCOCCn1c(CCNc2nc(-c3ccc(F)cc3)cs2)nc2cc(C(F)(F)F)ccc21	/	7.1	-9	-6.3	3.3	50	21
CCOc1ccc(/C=N/NC(=O)c2ccccc2C)cc1CN1CC2CC(C1)c1cccc(=O)n1C2 (configuration not stated)	/	-2.3	8	2.0	/	-7	/
Cc1sc(NC(=O)c2cccs2)c(C(=O)OC(C)C)c1C	2%	-5.0	2	-0.6	-3.0	-19	-10
Cc1ccccc1N1CC(C(=O)N2CC(C)OC(C)C2)CC1=O (configuration not stated)	/	-0.7	-2	3.9	2.0	-7	-8
COCCNC(=O)c1ccc(C)cc1C	7%	0.5	-4	0.7	-0.9	1	-5
CCc1c(C)sc(NC(=O)c2ccco2)c1C(=O)N1CCOCC1	8%	-1.2	6	1.7	-8.2	20	5
O=C(O)CCC(=O)N1CCc2cc(S(=O)(=O)NCCc3ccc(Cl)cc3)ccc21	/	0.0	10	-4.1	-4.2	0	0
CCCCOc1ccc(C(=O)Nc2ccc(N3CCN(C(C)=O)CC3)cc2)cc1	5%	2.4	-4	1.8	1.8	-26	-10
Cc1ccc(-n2cccc2/C=C2/C(=N)N3C(=NC2=O)SN=C3S(C)(=O)=O)cc1Cl	/	25	9	-446	/	21	/
Cc1ccc(Cl)cc1Nc1nc(-c2sc(NC(=O)C(C)(C)C)nc2C)cs1	1%	16	9	3.3	3.0	-3	-7
OCC[C@H]1C[C@H](O)[C@@H](O)[C@@]2(Cc3ccccc3CO2)O1	/	4.5	2	-1.3	/	1	/
COc1cccc(C(=O)CSc2nccn2C)c1	1%	-3.5	-7	4.2	7.7	15	8
O=C1NC(=Nc2ccccc2)/C(=C/c2ccco2)S1	/	-5.7	-12	-0.1	-10	-8	-56
O=C(NCc1nnc(SCC(=O)N2CCN(c3ccccc3)CC2)o1)c1c(F)cccc1F	/	-1.5	4	-0.3	4.1	?	9
CCc1nc2ccccc2c(C(=O)OCC(=O)NCc2ccc3c(c2)OCO3)c1C	/	-5.5	0	-4.1	-0.2	6	1
Cn1ccnc1SCCNC(=O)CCc1nnc(CCCCc2ccccc2)o1	-6%	2.6	-7	-0.7	1.8	-19	-13
O=C1NC(=S)NC1(c1ccccc1)c1ccccc1	1%	0.2	-3	/	/	/	/
CC1CN(S(=O)(=O)c2cn(C)c(=O)n(C)c2=O)CC(C)O1 (configuration not stated)	6%	-0.8	-11	1.6	4.0	-4	10
CCOc1cc(NC(=S)NCC2CCCO2)c(OCC)cc1NC(=O)c1ccccc1F (configuration not stated)	-9%	2.8	-12	-6.6	-1.5	/	7
Cc1cccc(NC(=O)C2CC(=O)N(c3ccc4c(c3)OCCO4)C2)n1 (configuration not stated)	22%	-1.0	3	/	/	5	/
COc1ccc(-c2nn(-c3ccccc3)cc2/C=C(\C#N)S(=O)(=O)c2ccccc2)cc1OC	-3%	1.8	-8	2.1	-7.3	-6	1
Cc1ccc(-c2cc(C(=O)OC3CCOC3=O)c3ccccc3n2)c(C)c1 (configuration not stated)	/	0.2	1	1.9	-2.8	4	21

# Of the compounds above, two contain a tert-butyl group:
SMILES	Vif TR-FRET	HNF4A DNA FP	B2AR ag	LANA-H2B inh	RanGTP-Imp inh	ALR inh	Calb FLC
Cc1ccc(S(=O)(=O)c2c(C)nn(C(C)(C)C)c2OC(=O)C2CCCC2)cc1	0%	-2.4	11	-2.6	-0.3	-2	-4
Cc1ccc(Cl)cc1Nc1nc(-c2sc(NC(=O)C(C)(C)C)nc2C)cs1	1%	16	9	3.3	3.0	-3	-7

# (further entries)
SMILES	Vif TR-FRET	HNF4A DNA FP	B2AR ag	LANA-H2B inh	RanGTP-Imp inh	ALR inh	Calb FLC
CC(C)N1C(=O)CCC1C(=O)N1CCC(Cc2ccccc2)CC1 (configuration not stated)	/	31	-9	1.9	-1.6	-18	-4
Cn1cccc1Cc1nnc(SCC(=O)N2CCc3ccccc32)n1CCc1ccccc1	2%&7%	4.3	-14	0.1	2.0	48	8
Cc1cc(C)n(S(=O)(=O)c2cccc(Cl)c2Cl)n1	/	1.6	4	1.2	-1.8	-15	-2
Cc1cc(C)c2nc3s/c(=C/c4ccc5c(c4)n(C)c(=O)n5C)c(=O)n3c2c1	1%	/	/	/	0.1	/	-5
Cc1cc(SC2CCOC2=O)nc2ccccc12 (configuration not stated)	3%	-0.8	1	6.0	2.7	-3	-20
CCOC(=O)Nc1ccc2c(c1)N(C(=O)CN1CCN(C)CC1)c1ccccc1S2	-1%&-6%	2.6	-3	-0.3	3.7	30	17
CCN(CC)CCNC(=O)CCc1c(C)nc2c(c(C)nn2-c2ccc(C)cc2)c1C	-4%	0.8	4	-0.2	8.0	-5	2
COc1ccc(-c2cc(C(=O)N3CCCC3)no2)cc1	23%	-0.3	1	-2.8	0.1	-4	0
O=C(c1ccco1)N1CCN(CC(=O)N2CCCc3c2c(=O)oc2ccc(O)cc32)CC1	-2%	/	/	0.7	3.1	32	7
CC1(C)CC(NC(=O)C2CCN(S(=O)(=O)c3cccc(C(F)(F)F)c3)CC2)CC(C)(C)N1	?	-1.1	11	-3.6	/	0	/
CCc1nc(SCC(=O)Nc2nnc(CC)s2)c2c(=O)n(C)c(=O)n(C)c2n1	-4%	-0.3	-18	5.2	6.7	0	30
O=C(CSc1nc(-c2ccccc2)cc(=O)[nH]1)Nc1ccc(F)c(F)c1	-3%	1.1	4	-14	1.9	-1	2
CCOc1cc(CNc2ccc(CNc3ncn[nH]3)cc2)ccc1OCc1ccccc1	/	0.3	-3	1.0	1.5	18	6
CCOc1ccccc1CNC(=O)Cn1ccc2cc(S(=O)(=O)N3CCC(C)CC3)ccc21	/	1.7	-5	-1.7	1.6	1	-8
COc1ccccc1N(C)S(=O)(=O)c1ccc(C(=O)OCC(=O)N(C(C)C)C(C)C)cc1	12%	5.5	6	1.1	-1.9	-40	?
COc1cccc(C(=O)Nc2c(F)c(F)c(F)c(F)c2F)c1	-1%	0.8	-2	0.7	0.5	-1	-15
COc1ccc(C(=O)NCC2OCCc3ccccc32)cc1 (configuration not stated)	-5%	-1.1	5	3.7	?	-6	5
[O-][n+]1onc2c3cc(-c4ccccc4)nnc3ccc21	7%	6.0	0	1.3	4.5	-9	0
COC(=O)C1SCCN1S(=O)(=O)c1ccc(Cl)cc1 (configuration not stated)	/	1.5	1	4.6	-1.4	29	0
CC(C)Cn1c(N)c(C(=O)NCC2CCCO2)c2nc3ccccc3nc21 (configuration not stated)	8%	4.1	12	3.7	82*	10	15
CNC(C)C#Cc1ccc2oc3cccc(OC)c3c(=O)c2c1 (configuration not stated)	/	1.5	-12	-3.0	-9.6	0	-12
C/C(=N\NC(=O)C1CC1)c1ccc(NC(=O)c2ccc(Br)o2)cc1	/	/	/	-6.1	/	16	?
Cc1nn(-c2ccccc2)c2nc(Cl)c(C(=O)O)cc12	-2%	0.7	3	2.3	0.1	-11	22
CC1(C)O[C@@H]2[C@H](O1)[C@@H](COS(=O)(=O)O)O[C@H]2n1cnc2c(=O)[nH]cnc21	/	-1.7	-3	-3.9	/	-4	/
O=C(COc1ccc(C(=O)NCC2CCCO2)cc1)Nc1cccc(C(F)(F)F)c1 (configuration not stated)	2%	0.6	-2	-5.4	3.7	-6	49

# The last 4 records of the section above are carried over, then new ones follow.
SMILES	Vif TR-FRET	HNF4A DNA FP	B2AR ag	LANA-H2B inh	RanGTP-Imp inh	ALR inh	Calb FLC
C/C(=N\NC(=O)C1CC1)c1ccc(NC(=O)c2ccc(Br)o2)cc1	/	/	/	-6.1	/	16	?
Cc1nn(-c2ccccc2)c2nc(Cl)c(C(=O)O)cc12	-2%	0.7	3	2.3	0.1	-11	22
CC1(C)O[C@@H]2[C@H](O1)[C@@H](COS(=O)(=O)O)O[C@H]2n1cnc2c(=O)[nH]cnc21	/	-1.7	-3	-3.9	/	-4	/
O=C(COc1ccc(C(=O)NCC2CCCO2)cc1)Nc1cccc(C(F)(F)F)c1 (configuration not stated)	2%	0.6	-2	-5.4	3.7	-6	49
CC(=O)c1cccc(NC(=O)NC(C)c2ccc3c(c2)OCO3)c1 (configuration not stated)	-6%	-4.8	6	4.6	1.0	2	-7
CCCc1nn(C)c2c(=O)[nH]c(-c3ccccc3OCC)nc12	2%	-1.6	-1	7.8	0.7	-2	-10
COc1ccccc1N1CCN(C(=O)CCc2ccc(S(=O)(=O)NC(C)C)cc2)CC1	0%	-4.7	2	-4.4	-0.2	/	19
O=C(COC(=O)COc1ccccc1)NC1CCS(=O)(=O)C1 (configuration not stated)	-2%	1.1	2	2.4	/	-4	/
CCn1c(C)nc2cc(C(=O)NNS(=O)(=O)c3ccc(C)cc3C)ccc21	0%	1.1	0	6.2	-1.9	10	0
CCCN(Cc1cc2cc(C)ccc2[nH]c1=O)C(=O)c1cccc(OC)c1	4%	-0.3	-3	-4.1	-7.2	-5	2
O=C(NCc1ccco1)c1ccc(COc2cc(Cl)ccc2Cl)cc1	5%	3.6	-3	4.4	1.1	-2	7
N#Cc1c(N)n(-c2ccc(N)cc2)c2nc3ccccc3nc12	10%	-0.5	-5	-3.6	-0.5	-18	-1
Cn1c(N)c(C(=O)CSc2nnc(NC3CCCCC3)s2)c(=O)n(C)c1=O	-2%	1.2	2	/	/	/	/
CC1([N+](=O)[O-])COC(C=Cc2ccccc2)OC1 (configuration not stated)	-7%	0.1	9	/	/	/	/
O=C(O)c1ccc(Cl)c(S(=O)(=O)NCc2cccnc2)c1	1%	-3.7	2	-4.8	-0.1	-15	1
CCC(=O)c1ccc(OCC(=O)N(Cc2nnc(-c3ccccc3Cl)o2)C2CC2)cc1	-8%	4.2	3	1.2	7.9	-2	-11
C#CCOCCOCCOCCNc1nc(N2CCN(C(=O)CCCCCCCCCCNC(=O)[C@@H](CCC(=O)O)n3cc(CCCCCN)nn3)CC2)nc(N2CCN(C(=O)CCCCCCCCCCNC(=O)[C@@H](CCC(=O)O)n3cc(CCCCCN)nn3)CC2)n1	/	1.1	-17	-1.4	/	-5	/
Cc1ccc(S(=O)(=O)NC(=O)NCCCN2CCOCC2)cc1	/	3.7	2	-3.6	-1.0	1	-5
O=C(O)CNc1ncccc1[N+](=O)[O-]	/	1.6	-3	10	-1.5	-1	11
O=C1CCC(=O)N1c1ccccc1	/	1.4	-3	1.8	0.8	3	0
O=C(NS(=O)(=O)c1ccccc1)c1ccccc1F	5%	-8.3	-8	-3.1	2.8	-2	-2
Cc1ccc(-c2ccc(CCC(=O)O)n2CC2CCCO2)cc1 (configuration not stated)	8%	5.1	-3	-4.4	2.5	39	-13
CSCCCNC(=O)c1ccc(OC2CCN(CCc3ccccc3)CC2)cc1	1%	0.8	0	-9.4	6.1	-4	-11
CCOC(=O)C1CCN(CCC(=O)Nc2ccc(F)cc2)CC1	30%	2.1	2	-4.2	-1.7	-4	107*
Cc1ccc(CCC(=O)Nc2ccc([N+](=O)[O-])cc2Cl)o1	-7%	-0.9	-7	-0.9	-2.8	53	-17

# Compound activity deposited in PubChem BioAssay by several laboratories.
